StopGo reporter = FMDV 2A StopGo reporter, luciferase signal; human cells with a luciferase reporter of 2A StopGo recoding; control for the full effect not named in the record; Potency, µM (doses to about 57.9 µM), for inactives: top-dose signal change, negative = less light; AID 1159524; actives 1.2% (n = 410,000); active = well fitted falling curve with a large enough effect; inconclusive = small, poorly fitted or top-dose-only effect; inactive = no such curve, though single readings can be large or run the other way; tested in HEK293T cells; further: on the % scale 0 is the no-effect control and ±100 the full control effect; nearly all actives have a fitted effect of over 45% in size; luciferase light after 4 h
SARS PLP yeast = blocks SARS-CoV papain-like protease in a yeast assay | S. cerevisiae expressing SARS-CoV PLpro, growth rescue; control for the full effect not named in the record | Potency, µM (series often up to 32.9 µM), without a hit: top-dose activity, positive = growth rescue | actives 0.19% (n = 330,000) | AID 485353; active means well fitted rising curve with a large enough effect; inconclusive means small, poorly fitted or top-dose-only effect; inactive means no such curve, though single readings can be large or run the other way; further: 0% is about no effect; nearly all actives have a fitted effect of over 55% in size; growth read by luminescence after 48 h
Cruzain noTriton = inhibitors of Trypanosoma cruzi cruzain without detergent; AID 1476; P25779; Potency, µM, inactives show max response, negative = inhibition, most hits filed as inhibitors; purified cruzain, Z-FR-AMC fluorescence, no detergent; actives 2.3% (n = 200,000);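 further: plate controls were enzyme without inhibitor for no effect and buffer without enzyme for full effect; nearly all actives have a fitted effect of over 40% in size; top concentration of the series not given in the record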
Target sequence (P25779 123-467 limits assumed): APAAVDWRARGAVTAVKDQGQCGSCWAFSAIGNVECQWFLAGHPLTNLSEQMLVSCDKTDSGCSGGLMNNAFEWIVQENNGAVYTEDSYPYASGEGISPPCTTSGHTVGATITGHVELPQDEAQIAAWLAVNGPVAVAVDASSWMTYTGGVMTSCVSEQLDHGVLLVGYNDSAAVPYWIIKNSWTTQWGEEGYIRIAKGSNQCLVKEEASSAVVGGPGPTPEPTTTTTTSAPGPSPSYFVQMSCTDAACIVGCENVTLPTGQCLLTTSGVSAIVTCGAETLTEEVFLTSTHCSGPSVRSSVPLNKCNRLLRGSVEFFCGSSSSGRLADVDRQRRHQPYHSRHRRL
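Detergent-free condition (0.00005% Triton X-100) in acetate buffer pH 5.5 with DTT. 1.5 nM enzyme and compound were pre-mixed 15 min, then 2 uM Z-FR-AMC substrate added; reaction progress from fluorescence change between first and third reads (60 s).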
RE007 growth inh = less growth of the S. pombe RE007 Vpr strain; S. pombe RE007 Vpr strain, BacTiter-Glo ATP luminescence, 24 h; control for the full effect not named in the record; Potency, µM (doses to about 92.2 µM), for the others: top-dose activity change, negative = less growth; actives 0.21% (n = 360,000); active = well fitted falling curve with a large enough effect; inconclusive = small, poorly fitted or top-dose-only effect; inactive = no such curve, though single readings can be large or run the other way;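 further: on the % scale 0 is the no-effect control and ±100 the full control effect; nearly all actives have a fitted effect of over 50% in size; the assay follows cell death caused by Vpr and the record does not say whether a fall means rescue or toxicity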
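Fission yeast strain RE007, carrying one chromosomally integrated HIV-1 vpr copy, was seeded at OD 0.01 in PMG+AL medium with 23 nL pinned compound. After 24 h at 30 °C and 99% humidity, viability was read by BacTiter-Glo luminescence.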
Marburg entry inh = Marburg virus entry inhibition. Marburg virus pseudotyped entry inhibition, cell reporter; control for the full effect not named in the record; about a third of the inactives were read at about 46 µM. Potency, µM (highest dose often 37.8 µM), inactives show at the top dose activity change, negative = inhibition, usual class: inhibitors. actives 1.8% (n = 300,000); active = well fitted inhibition curve with a large enough effect; inconclusive = small, poorly fitted or top-dose-only effect, or effect the other way; inactive = flat fitted curve, though single readings scatter; tested in HEK293 cells; about a fifth of its hits are not listed in these tables; further: on the % scale 0 is the no-effect control and ±100 the full control effect; luciferase read-out
Cruzain inh Det = cruzain (T. cruzi) inhibition with detergent; P25779; purified cruzain, Z-FR-AMC fluorescence, 0.01% Triton; Potency, µM, for inactives: max response, negative = inhibition, hits mostly inhibitors; actives 0.43% (n = 200,000);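 further: plate controls were neutral wells for no effect and buffer without enzyme for full effect; nearly all actives have a fitted effect of over 40% in size; top concentration of the series not given in the record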
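Z-FR-AMC hydrolysis (2 uM substrate) by cruzain (1.5 nM) monitored kinetically at ex 360/em 450 nm after 15 min room-temperature compound exposure; 0.01% Triton X-100, pH 5.5, 5 mM DTT.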
NS1 function inh = influenza NS1 inhibition; S. cerevisiae slowed by influenza A NS1, growth recovery by OD600; Potency, µM (series often up to 46.1 µM), without a hit: at the top dose activity, positive = more growth; actives 0.4% (n = 270,000); active means well fitted rising curve with a large enough effect; inconclusive means small, poorly fitted or top-dose-only effect; inactive means no such curve, though single readings can be large or run the other way; further: nearly all actives have a fitted effect of over 50% in size
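OD600 was taken as the measure of yeast growth restored by compound in an NS1-expressing S. cerevisiae strain. Cells had been washed out of glucose medium and diluted 1:100 into galactose -URA medium, pH 6.0.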
LASV entry inh = blocks Lassa virus binding to or entry into cells. Lassa virus pseudotype entry inhibition, cell reporter; control for the full effect not named in the record. Potency, µM (highest dose often 37.9 µM), without a hit: top-dose activity change, negative = inhibition, hits mostly inhibitors. actives 1.2% (n = 300,000). AID 540256; active means well fitted inhibition curve with a large enough effect; inconclusive means small, poorly fitted or top-dose-only effect, or effect the other way; inactive means flat fitted curve, though single readings scatter; tested in HEK293 cells; further: on the % scale 0 is the no-effect control and ±100 the full control effect; nearly all actives have a fitted effect of over 50% in size; luciferase read-out
The depositor's hits bear a star; ? = inconclusive; / = not tested or not shown; & = joins results of further samples; [ ] = remark or other dose. Unless noted, the call rests on the fitted dose curve; in most records, active means well fitted curve in the direction sought with a large enough effect; inconclusive means small, poorly fitted or top-dose-only effect, or another doubt; inactive means no such curve, though single readings can be large; an effect the other way counts as inactive or inconclusive. Potency means the concentration at half of the fitted maximal effect.

SMILES	StopGo reporter	SARS PLP yeast	Cruzain noTriton	RE007 growth inh	Marburg entry inh	Cruzain inh Det	NS1 function inh	LASV entry inh
Cc1ccccc1Cn1cnc2c([N+](=O)[O-])c(C)c(C)cc21	-28%	-3%	-13%	16%	3%	-7.2%	-22%	-2%
Cc1ccccc1CN1CCN(C(=O)c2ccco2)CC1	29%	1%	/	13%	?	/	1%	?
Cc1ccc(-n2c(SCC(=O)N3CCOCC3)nnc2-c2cccnc2)cc1C	2%	-1%	-1%	-5%	8%	6.0%	0%	?
CN1CCc2c(sc(NC(=O)C3CCCCC3)c2C(N)=O)C1	5%	-16%	/	6%	/	/	-1%	/
C=CCNC(=S)NNC(=O)c1ccc(Br)o1	-7%	-3%	14%	13%	-14%	1.3%	-5%	1%
COc1ccc(N(CC(=O)N/N=C/c2ccccc2OC)S(=O)(=O)c2ccccc2)cc1	-2%	2%	/	1%	-20%[46.1 µM]	/	4%	1%
COc1ccc(CNC(=O)CSCc2ccc(C)cc2)c(OC)c1	-8%	/	-4%	/	/	0.4%	/	7%[46.1 µM]
CCCCn1c(SCC(=O)c2ccc3c(c2)OCCO3)nnc1-c1ccoc1C	-18%	-7%	-3%	22%	11µM*	-4.9%	-6%	-29%
CC(C)[C@H](NC(=O)C1CC(=O)N(c2ccc(F)cc2)C1)C(=O)N1CCCCC1 (stereo not given in full)	11%	0%	/	20%	/	/	0%	/
COc1ccccc1N1CCN(Cc2nc3ccccc3[nH]2)CC1	-8%	9%	/	-11%	-10%[46.1 µM]	/	17%	17%
Cc1ccc(C)c(C(=O)C(C)OC(=O)CN2C(=O)NC3(CC(C)CC(C)(C)C3)C2=O)c1 (stereo not given)	-27%	2%	/	8%	-22%	/	26%	3%
C=CCNC(=S)NNC(=O)COc1ccc(Cl)cc1Cl	-29%	-44%	-8%	-2%	?	-2.2%	-21%	0%
COc1ccccc1NC(=O)CSc1nnc(CCC(=O)Nc2ccccc2F)n1C	-15%	2%	/	-10%	/	/	-1%	/
CSc1oc(-c2ccc(F)cc2)nc1S(=O)(=O)c1ccc(F)cc1	-24%	-7%	-5%	12%	/	-5.4%	1%	/
Cc1cc(C)n(CCC(=O)N2CCCC(N3CCN(c4cccc(Cl)c4)CC3)C2)n1 (stereo not given)	0%	5%	/	8%	6%	/	28%	-15%
CCOC(=O)c1c(C)[nH]c(C)c1S(=O)(=O)N(C)CC(=O)Nc1ccc(OC)cc1	-5%	/	-3%	/	/	1.9%	/	-1%[46.1 µM]
COc1ccc(-n2c(SCC(=O)Nc3ccc4c(c3)OCO4)nnc2C(C)N2CCCCC2)cc1 (stereo not given)	14%	14%	7%	-6%	-18%&-18%	-0.7%	-4%	-16%
O=C(CN(Cc1cccs1)C(=O)CN1C(=O)COc2ccccc21)NCc1ccco1	-27%	-2%	-19%	-2%	-25%	1.6%	8%	-7%
O=C(/C=C/c1cc2c(cc1Br)OCO2)NCc1ccc(F)cc1	-3%	-5%	-13%	-1%	-3%[46.1 µM]	-6.2%	2%	-4%
COCCOC(=O)c1c(C)oc2ccc(NS(=O)(=O)c3cccs3)cc12	-13%	-1%	/	-11%	?	/	7%	1%[46.1 µM]
C=CCOC(=O)/C(=C\C=C\c1ccccc1)NC(=O)c1ccccc1	38%[activator]	14%	?	11%	-28%	14µM*	-1%	7%
COc1ccc(OCCC(=O)OCC(=O)Nc2cccc(Br)c2)cc1	-11%	-44%	-3%	-12%	2%	-11%	-22%	2%
O=C(NC1CCSc2ccccc21)c1ccc(Cl)c(S(=O)(=O)N2CCOCC2)c1 (stereo not given)	3%	-1%	/	16%	-4%	/	-7%	-19%
Cc1c(C=O)c2ccccc2n1CC(=O)O	-6%	-1%	/	5%	/	/	2%	/
CC(=O)N1CCc2cc(S(=O)(=O)N3CCc4ccccc43)ccc21	?	3%	/	-3%	?	/	25%	?
COc1ccc(NS(=O)(=O)c2cccc(C(=O)NCCCN3CCOCC3)c2)cc1	-10%	0%	/	5%	?	/	/	9%
CCCNC(=O)c1ccccc1NC(=O)c1ccc2c(=O)n3c(nc2c1)CCC3	2%	0%	/	76%	12%	/	/	?
S=C(Nc1cccc(Br)c1)c1ccccc1	-2%	-90%	-6%	?	9%	-3.2%	-24%	?
Cc1cccc(NC(=O)c2cc(-c3cc(Cl)ccc3O)n[nH]2)c1	53%[activator]	-1%	/	-9%	?	/	1%	?
CCc1ccc(NC(=S)/N=C(\N)Nc2nc(C)c3cc(CC)ccc3n2)cc1	?	0%	/	-9%	?	/	18%	?
Cc1cccc(C)c1OCC(=O)Nc1c(C)nn(C)c1C	?	-2%	/	-5%	/	/	6%	/
COC(=O)c1ccc(CN2C(=O)NC3(CCCCC3C)C2=O)o1 (stereo not given)	0%	-2%	-4%	10%	2%	2.4%	-1%	12%
CNC(=O)c1cc2ccccc2o1	-5%	6%	11%	-4%	2%[46.1 µM]	-2.2%	12%	-1%
Cc1cc(C)n(-c2nc(Nc3ccccc3)nc(-n3nc(C)cc3C)n2)n1	/	-4%	?	-12%	0%	4.6%	-17%	-8%
CCOc1ccc(S(=O)(=O)Nc2cccc(C(=O)N3CCN(C(C)=O)CC3)c2)cc1	1%	2%	/	-8%	?	/	/	2%[46.1 µM]
Cc1c(C(=O)NCCO)sc2nc3n(c(=O)c12)CCC3	1%	0%	/	2%	22%[46.1 µM]	/	-1%	-5%
CCn1c(O)c(N=Nc2cccc(S(=O)(=O)N3CCOCC3)c2)c(=O)n(CC)c1=S	-29%	0%	/	3%	/	/	3%	/
COc1ccc2sc(N(CCCN(C)C)C(=O)c3ccc(S(=O)(=O)N4CCCC4)cc3)nc2c1	-12%	3%	/	-5%	22%	/	/	25%
CN(CC(=O)Nc1ccc(Cl)c(C(F)(F)F)c1)C(=O)c1cc(-c2ccncc2)nc2ccccc12	28µM*	-3%	/	-9%	?	/	/	-17%[46.1 µM]
Cc1ccc(S(=O)(=O)N(C)C)cc1NC(=O)CSc1ccc2c(c1)OCCO2	-29%	-4%	/	12%	-1%	/	/	-22%[46.1 µM]
COc1ccc(CN2CCCC(N3CCN(c4cccc(Cl)c4)CC3)C2)cc1OC (stereo not given)	-8%	-3%	/	1%	/	/	2%	/
CC(=O)c1cccc(NC(=O)COC(=O)COc2ccc(Cl)cc2)c1	-12%	-3%	/	-2%	28%[46.1 µM]	/	/	6%[46.1 µM]
O=S(=O)(Nc1ccc(Cl)cc1)c1ccc(N2CCOCC2)c(NC(=S)NC2CC2)c1	84%[activator]	0%	/	3%	/	/	-11%	/
Cc1cc(C)c(NC(=O)CSc2nnc(Cc3cccn3C)n2-c2ccc(F)cc2)c(C)c1	16%	3%	?	-18%	?	-0.2%	-7%	4%
Cn1c(SCC(=O)c2ccccc2)nc2cccnc21	-11%	-14%	1%	-23%	-4%	-1.4%	-23%	9%
CCc1cccc(NC(=O)CCS(=O)(=O)c2ccc3c(c2)NC(=O)CO3)c1	9%	4%	/	3%	-16%[46.1 µM]	/	4%	13%[46.1 µM]
COCCCN(C(=S)NC(=O)C(C)(C)C)c1c(N)n(Cc2ccccc2)c(=O)[nH]c1=O	22%	1%	/	-8%	/	/	-1%	/
Cc1ccc(C(=O)/C=C/c2ccc3ncccc3c2)cc1	-10%	-12%	/	?	/	/	6%	/
CCOc1ccc(C(C)(N)C(=O)O)cc1 (stereo not given)	-15%	6%	-1%	19%	-4%	3.6%	0%	-3%
O=C(COC(=O)c1ccc(NS(=O)(=O)c2ccc(Br)s2)cc1)NC1CCCC1	-3%	0%	/	-3%	-24%[46.1 µM]	/	/	9%[46.1 µM]
CCC(=O)N(Cc1cccs1)C1CCOC(C)(C)C1 (stereo not given)	-20%	2%	3%	-19%	-16%[46.1 µM]	5.1%	7%	3%
O=C1C2ON(c3ccccc3)C(c3ccccn3)C2C(=O)N1c1ccc(Br)cc1 (stereo not given)	-20%	-7%	4%	-7%	2%	-3.5%	-38%	5%
CCN(CC)S(=O)(=O)c1nnc(NC(=O)c2ccc(Br)cc2)s1	-26%	/	3%	/	/	-2.0%	/	-3%[46.1 µM]
NS(=O)(=O)c1cccc(NC(=O)COC(=O)c2cc(Cl)ccc2[N+](=O)[O-])c1	8%	-1%	/	7%	/	/	?	/
Cc1ccc(C)c(OCCC(=O)OCC(=O)NCCNC(=O)COC(=O)CCOc2cc(C)ccc2C)c1	-1%	1%	/	1%	2%[46.1 µM]	/	/	3%
CC(C)OCCOc1ccc2oc(-c3ccco3)cc(=O)c2c1	9%	-13%	/	-26%	1%	/	-23%	2%
C=CCN1C(=O)C(O)(CC(=O)c2ccccn2)c2ccccc21 (stereo not given)	-17%	0%	/	-21%	-8%[46.1 µM]	/	0%	-19%[46.1 µM]
O=C(COc1ccccc1)Nc1ccncc1	-11%	0%	/	-8%	-13%[46.1 µM]	/	-5%	-2%[46.1 µM]
O=C(Cc1ccc([N+](=O)[O-])cc1)NNC(=O)c1ccc2c(c1)OCO2	2%	-2%	/	16%	/	/	18%	/
Clc1ccccc1CSC1=NCCN1	-6%	1%	/	-4%	-23%[46.1 µM]	/	-3%	-16%[46.1 µM]

(continued)
SMILES	StopGo reporter	SARS PLP yeast	Cruzain noTriton	RE007 growth inh	Marburg entry inh	Cruzain inh Det	NS1 function inh	LASV entry inh
O=C(Nc1ccc(-c2n[nH]c(=S)o2)cc1)c1ccccc1	25%	2%	/	17%	2%	/	1%	/
CNC(=O)Oc1cc2c(cc1C(C)(C)C)CCC2	-5%	/	/	-16%	?	/	/	-12%[46.1 µM]
Fc1ccc(CNc2nc3ccc(Cl)cc3n3nnnc23)cc1	-3%	/	-5%	/	5%[46.1 µM]	-1.4%	/	23%[46.1 µM]
N=C1C(c2ccccc2)=C(O)CN1CCO	0%	5%	/	8%	20%	/	8%	9%
COc1ccc2c(c1)nc(SCC(=O)c1ccc(Br)s1)n2C	/	9%	-16%	-27%	-21%	0.3%	-3%	-23%
O=C1CN(C(=O)c2c(F)cccc2Cl)C(c2ccc(F)cc2)c2cc(Br)ccc2N1 (stereo not given)	-5%	/	-7%	/	-23%[46.1 µM]	-7.5%	/	?

Compound activity: PubChem BioAssay, National Center for Advancing Translational Sciences (NCATS)
